High-throughput results deposited in PubChem BioAssay by PCMD.
Biofilm kill mix: mixtures killing C. albicans biofilm | C. albicans biofilm persisters + clotrimazole, fluorescence viability; primary screen in compound mixtures of four per well | inhibition, % at 7.6 µM | hit rate 0.02% among 120,000 | AID 1242;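 active = inhibition above 30.3% in the primary screen of four-compound pools, then above 30% when the compound was retested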;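 note: compounds exposed to preformed 24 h biofilms for 48 h; the number belongs to the whole pool; some results filed as inactive read as strong as hits; inactives centre near 12; 0% = biofilm with clotrimazole alone and 100% = kill control; retested singly at about 60 µM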
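Probe or stimulus – Clotrimazole 50 µg/mL co-treatment · System – C. albicans biofilms · Schedule – 24 h biofilm formation, then 48 h compound exposure, 37 °C · Evaluation – percent inhibition of biofilm viability · Technique – 2-h Alamar Blue fluorescence, 535/590 nm excitation/emission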
Active calls of the source: *. Not all compounds are listed; count on the stated rates, not on these rows.

SMILES | Biofilm kill mix
CCN(CC)C(=O)C(=O)c1ccn(-c2c(C)csc2C(=O)OC)c1 | 6
Cc1cccc(NC(=O)C2(c3ccccc3)CCOCC2)c1 | 7
CCOC(=O)C1(Cc2cccc(Cl)c2)CCCN(CCO)C1 (stereo not drawn) | 2
COc1ccccc1C(=O)N/C(=C\c1ccccc1)C(=O)NC(C)C(=O)O (stereo not drawn) | -3
O=C(CCC1CCCN(C(=O)CCC(F)(F)F)C1)NCc1ccc(F)c(F)c1 (stereo not drawn) | 19
O=C(NNc1ccccn1)C(=O)NNS(=O)(=O)c1ccc(F)cc1 | 10
CCCCNC(=O)CNC(=S)N(Cc1ccccc1F)C1CCCCC1 | 16
O=c1[nH]c(SCc2ccccc2F)nc2ccccc12 | 10
O=C(NCCCn1ccnc1)c1cc(C(=O)C2CCCCC2)c[nH]1 | 13
Cc1sc(NC(=O)C2CC(Cl)=CCC2C(=O)O)c(C#N)c1C (stereo not drawn) | 13
CC1CN(c2ccc([N+](=O)[O-])cc2C#N)CC(C)O1 (stereo not drawn) | 0
COC(c1ccccc1)c1nnc(CCC(=O)N2CCN(CCOc3ccccc3)CC2)o1 (stereo not drawn) | 0
Cc1ccc(N=C2NC(=O)/C(=C/c3cccn3C)S2)cc1C | 11
CSc1nc(-c2ccc(F)cc2)cc(=O)[nH]1 | 8
COc1cccc2sc(NNC(=O)c3nc4ccccc4s3)nc12 | 10
CCCCNC(=S)NNC(=O)c1c(C)nc2ccccn12 | 30
NS(=O)(=O)c1ccc(CCNCc2cc(Br)ccc2OCc2ccccc2F)cc1 | 11
CC(=O)CSc1ncnc2c1cnn2-c1ccccc1 | 13
COc1ccc(C(c2c(O)nc(SC)n(C)c2=O)c2c(O)nc(SC)n(C)c2=O)cc1O | 10
N#Cc1c(N)nc(N)nc1Nc1ccc(Br)cc1 | 17

Shown field by field: part of the list above
Cc1ccc(N=C2NC(=O)/C(=C/c3cccn3C)S2)cc1C
  Biofilm kill mix: 11
CCCCNC(=S)NNC(=O)c1c(C)nc2ccccn12
  Biofilm kill mix: 30
CC1CN(c2ccc([N+](=O)[O-])cc2C#N)CC(C)O1 (stereo not drawn)
  Biofilm kill mix: 0
N#Cc1c(N)nc(N)nc1Nc1ccc(Br)cc1
  Biofilm kill mix: 17

Laid out differently: 2 of the compounds above.
SMILES: COC(c1ccccc1)c1nnc(CCC(=O)N2CCN(CCOc3ccccc3)CC2)o1 (stereo not drawn)
  Biofilm kill mix: 0
SMILES: Cc1ccc(N=C2NC(=O)/C(=C/c3cccn3C)S2)cc1C
  Biofilm kill mix: 11

Later entries
SMILES | Biofilm kill mix
CCOC(=O)Nc1ccc2c(c1)N(C(=O)N1CCN(C)CC1)c1ccccc1CC2 | 6
CC(=O)Nc1cccc(/C(C)=N/Nc2nc3ccccc3s2)c1 | 9
O=S(=O)(Nc1c(S(=O)(=O)c2ccccc2)c2nc3ccccc3nc2n1C1CCCCC1)c1ccccc1 | 11
CCOc1ccc(N2C(=O)Nc3ccccc3C2(O)C(=O)NCc2ccc(C)cc2)cc1 (stereo not drawn) | 22
N#Cc1c2n(c(=S)n(-c3ccccc3[N+](=O)[O-])c1=O)CCCCC2 | 4
COc1ccc(CNC(=O)Cn2nnc(-c3ccc(NC(=O)C4CCCCC4)cc3)n2)cc1 | 6
CCOC(=O)Cc1csc(NC(=S)NC(=O)c2cccc([N+](=O)[O-])c2)n1 | 23
CNC(=S)N1CCN=C1Nc1nc(C)cc(C)n1 | 12
N#CC(C#N)=C1c2cc(S(N)(=O)=O)ccc2-c2ccc(S(N)(=O)=O)cc21 | 12
CN(Cc1cccs1)C(=O)c1ccc(S(=O)(=O)NCc2ccco2)cc1 | 8
C=CCn1c(SCc2nc3cc(C(F)(F)F)ccc3c(=O)[nH]2)nc2sc(CC)cc2c1=O | 6
COc1cc2nc(CN3CCN(S(=O)(=O)c4ccc(C)c(C)c4)CC3)[nH]c(=O)c2cc1OC | 16
CC(=C\C(=O)O)/C(=C/c1ccco1)C(=O)O | 57
CCOC(=O)c1oc2ccc(/C=N/O)c(Cl)c2c1C | 14
CCOC(=O)c1oc2ccc(CNC(C)(C)C)c(Cl)c2c1C | 4
N/C(Cc1cccc2ccccc12)=N\O | 10
CC(C)Cc1nnc(NC(=O)c2cc3c(s2)CCC3)s1 | 23
CC(OC(=O)Cc1c(F)cccc1Cl)C(=O)NCCC1=CCCCC1 (stereo not drawn) | 14
COC(=O)c1ccc(S(=O)(=O)N2Cc3ccccc3C2)cc1 | 4
Cc1ccc(Cl)c(OCC(=O)OCC(=O)NC2CCCc3ccccc32)c1 (stereo not drawn) | 16

The list goes on; the last 3 above are carried over.
SMILES | Biofilm kill mix
CC(OC(=O)Cc1c(F)cccc1Cl)C(=O)NCCC1=CCCCC1 (stereo not drawn) | 14
COC(=O)c1ccc(S(=O)(=O)N2Cc3ccccc3C2)cc1 | 4
Cc1ccc(Cl)c(OCC(=O)OCC(=O)NC2CCCc3ccccc32)c1 (stereo not drawn) | 16
Cc1cccc(-n2c(C)cc(C(=S)N3CCOCC3)c2C)c1C | 14
C/C=C/c1ccc(OCCCCN2CC(C)CC(C)C2)c(OC)c1 (stereo not drawn) | -14
N#CCC(=O)N/N=C/c1cc([N+](=O)[O-])ccc1N1CCOCC1 | 12
CN(C)/N=C1\CCS(=O)(=O)c2sccc21 | 19
S=C(NCc1ccco1)Nc1ccc(Br)cc1Cl | -10
COc1cc(/C=N/Nc2ncc(C(F)(F)F)cc2Cl)cc(OC)c1O | 8
O=C(COC(=O)CSc1nnc(-c2ccc(Cl)cc2)o1)Nc1cc(Cl)ccc1Cl | 6
O=C(NCCc1cccc(F)c1)/C(=C/c1cccnc1)NC(=O)c1ccccc1 | 15
Cc1ccc(C(O)(C(=O)NN(C(=O)c2ccccc2)c2ccccc2)c2ccc(C)cc2)cc1 | 15
Cc1ccc(O)c(C(CC(=O)NCc2ccco2)c2ccccc2)c1 (stereo not drawn) | 24
O=C(CCCOc1ccc(Cl)cc1Cl)N/N=C/c1ccco1 | 2
c1ccc2nc3ccccc3nc2c1 | 8
CCN(CC)CCNC(=O)c1ccc(NC(=O)Cc2ccccc2F)cc1 | -5
COc1nc(NCCO)nc(Nc2ccc([N+](=O)[O-])cc2)n1 | 9
O=C(N/N=C/c1cccc(Br)c1)c1ccc(Br)cc1 | -2
Cc1ccc(Cn2nnnc2CN2CCC(O)(c3cccnc3)CC2)cc1 | 2
S=c1[nH]ccn1-c1cccc(Cl)c1 | 6
CCSc1ccc(-c2ccc(C)cc2)nn1 | 17
COC(=O)[C@@]1(Cc2ccc(F)cc2)[C@H]2c3cc(C(=O)N(C)C)n(Cc4ccccn4)c3C[C@H]2CN1C(=O)c1ccccc1 | 4
CC(C)c1ccc(NCCC(=O)c2ccc(Br)cc2)cc1 | 5
CC(C(=O)NC(C)(C)C)N(Cc1cccs1)C(=O)CCN1CCc2ccccc21 (stereo not drawn) | 11
Cc1ccc(C(=O)N2CCN(S(=O)(=O)c3ccccc3[N+](=O)[O-])C2)cc1 | 7
CC1CCCC(C)N1C(=O)CSc1nc2ccccc2c(=O)[nH]1 (stereo not drawn) | 5
O=C(COC(=O)CNC(=O)c1cccc([N+](=O)[O-])c1)Nc1cccc(S(=O)(=O)N2CCCC2)c1 | 14
CCO/C=C1\C(=O)N(CC)c2ccccc21 | -9
CCC(C)[C@H]1CNC(=O)C(=O)N1CCCc1cc(OC)c(OC)c(OC)c1 (stereo partly drawn) | 3
O=S(=O)(N/N=C/c1ccc(F)cc1)c1ccccc1 | 7
Cc1ccccc1OCC(=O)N/N=C/c1cn(Cc2ccccc2)c2ccccc12 | 9
CCOC(=O)c1cc(-c2ccc(OC)cc2)nc2c1c(C)nn2CCC(N)=S | 10
Cc1ccc(C(=O)OCC(=O)N2CCC(Cc3ccccc3)CC2)cc1N | 0
Cc1cc(NC(=O)c2ccc(Cl)cc2)n(CCOC(=O)c2ccc(Cl)cc2)n1 | 8
CCOC(=O)CSC1=NC(=O)/C(=C/c2ccc(Br)cc2)S1 | 13
N#Cc1c(N2C(=O)Nc3ccccc3N2O)sc2c1CCCCCC2 | -19
CCOC(=O)C1CCN(C(=O)CSc2c3c(nc4ccccc24)CCC3)CC1 | 5
Cc1cccc(C(=O)N2CCCCCC2)c1[N+](=O)[O-] | 3
O=C(O)c1ccccc1C(=O)NNc1cccc(Cl)n1 | -10
COc1ccc(S(=O)(=O)N(C)c2ccc(C(=O)N3CCCC3)cc2)cc1 | 13
COc1ccc(NC(=O)CSc2nc3ccccc3c(=O)n2CCCN2CCOCC2)c(OC)c1 | 10
COc1ccccc1-n1c(SCC(=O)Nc2ccc(Br)cc2)nc(O)cc1=O | 24
Cc1cccn2c(CN[C@@H]3CCCC[C@H]3c3ccccc3)c(C(=O)N3CCOCC3)nc12 | 16
N#CC(C#N)=C1C(=O)N(CCN2CCCCC2)c2ccccc21 | 21
O=C(CN1C(=O)S/C(=C\C=C\c2ccccc2)C1=O)Nc1cccc(O)c1 | -3
CCN1/C(=C/c2ccc3cc(C)ccc3[n+]2CC)Sc2cc(C)c(C)cc21 | 32*
O=C(Nc1nnc(SCC(=O)N2CCCc3ccccc32)s1)c1ccc2ccccc2c1 | 19
Cc1cc(C)c(CN2CCCC(CNC(=O)c3ccc(F)cc3)C2)c(-n2cccn2)c1 (stereo not drawn) | 15
CCN(CC)C(=O)CSc1nc2[nH]ncc2c(=O)[nH]1 | 8
CC(C)=CC(=O)OCC(=O)Nc1ccc(SC(F)F)cc1 | 0
CC1C/C(=N\NC(=O)c2ccc(NS(=O)(=O)c3ccc(Br)cc3)cc2)CC(C)(C)C1 (stereo not drawn) | 17
O=c1nc(N/N=C/c2ccccn2)cn[nH]1 | 30
CCOC(=O)c1sc(-c2ccc(C)cc2)c(C#N)c1C | 20

More records.
SMILES | Biofilm kill mix
CCOc1cc(NC(=O)c2ccccn2)c(OCC)cc1NC(=O)c1ccc(C)cc1 | -16
O=C(Nc1ccccc1-c1ccccc1)c1ccc(Cl)c([N+](=O)[O-])c1 | 13
O=C1C2CC=CCC2C(=O)N1Cc1ccccc1 (stereo not drawn) | -4
Cc1cc(=O)[nH]c(N/N=C/c2ccc(N(C)C)cc2)n1 | 8
Cc1nc2ccccn2c1C(=O)/C=C/c1cccc([N+](=O)[O-])c1 | 6
Nc1cc(Cl)ccc1N1C(=O)CCC1=O | 0
COc1ccc(-c2cc(C(=O)c3c(N)n(C)c(=O)n(C)c3=O)c3ccccc3n2)cc1OC | 11
Cc1ccc(NC(=O)c2cccs2)cc1S(=O)(=O)Nc1cccc(Cl)c1 | 11
C/C(CC(=O)Nc1ccc(N(C)C)cc1)=N\NC(=O)Cc1csc(N)n1 | 14
CCOC(=O)c1ccc(NC(=O)c2nc[nH]c2C(=O)N[C@@H](Cc2ccccc2)C(=O)OC(C)(C)C)cc1 | 12
COc1ccc(NS(=O)(=O)c2ccc(Cl)c(NC(=O)c3cccnc3Cl)c2)cc1 | 3
COc1ccc(S(=O)(=O)N2CC(O)CC2C(=O)OCc2nc3sc(C)c(C)c3c(=O)[nH]2)cc1 (stereo not drawn) | 10
Cc1c(Cl)cnc(NC(=O)COC(=O)c2cc3c(s2)CCC(C)C3)c1Cl (stereo not drawn) | 18
CCSc1nc(-c2ccccc2)nc2c1CCCC2 | -66
O=C(c1ccccc1)[C@@H]1[C@@H]2C(=O)N(c3ccc(F)cc3)C(=O)[C@@H]2C2CCCN21 (stereo partly drawn) | 24
CN1CCC(N(C)C(=S)NCCc2ccccc2)CC1 | 13
CCOC(=O)C1(CCOc2ccccc2)CCN(CCCn2cccn2)CC1 | 13
Cc1nn(-c2ccccc2)c(Cl)c1/C=C/C(=O)c1ccc(O)cc1 | 4
COc1cccc(/C=N\NC(=O)Cn2nnc3ccccc32)c1O | 16
O=C(NNS(=O)(=O)c1ccccc1[N+](=O)[O-])c1ccccc1Cl | 28

Five compounds picked at random from the list so far, as already listed:
SMILES | Biofilm kill mix
COC(=O)c1ccc(S(=O)(=O)N2Cc3ccccc3C2)cc1 | 4
O=C(CCC1CCCN(C(=O)CCC(F)(F)F)C1)NCc1ccc(F)c(F)c1 (stereo not drawn) | 19
NS(=O)(=O)c1ccc(CCNCc2cc(Br)ccc2OCc2ccccc2F)cc1 | 11
O=C(Nc1ccccc1-c1ccccc1)c1ccc(Cl)c([N+](=O)[O-])c1 | 13
CCOC(=O)Cc1csc(NC(=S)NC(=O)c2cccc([N+](=O)[O-])c2)n1 | 23

(list continues)
SMILES | Biofilm kill mix
CN(C)c1cc(NC(=O)CNC(C)(C)C)c2ccccc2n1 | 1
c1ccc(CCn2cnc3ccccc32)cc1 | -1
CCOc1cc(/C=C2\C(=O)ON=C2C)ccc1OCc1ccccc1 | 14
Cc1cc(C)c2c3c(oc2n1)C(=O)N(c1cccc(Cl)c1)CC(=O)N3 | 19
O=c1cc(CSc2nnc3ccccn23)c2c(ccc3ccccc32)o1 | 8
Cc1ccc(/C=C(\NC(=O)c2ccccc2)C(=O)NCC2CCCO2)o1 (stereo not drawn) | 4
CCc1nnc(NS(=O)(=O)c2ccc(NC(=S)NC(=O)c3ccccc3)cc2)s1 | -12
Cc1nn(C)c(C)c1/C=C(/C(=O)C(C)C)n1cncn1 | 23
Cc1ccc(-c2nc(N)n(C(=O)c3cccs3)n2)cc1 | 9
O=C(Cn1c(-c2ccccc2)c[n+]2ccsc12)c1ccccc1 | 8
CCCn1c(SCC(=O)NCc2ccccc2)n[nH]c1=O | 23
C=CCNC(=O)/C(=C/c1cn(-c2ccccc2)nc1-c1cccc([N+](=O)[O-])c1)NC(=O)c1ccccc1 | 9
COc1cccc(-c2nc(N3CCN(Cc4ccccc4)CC3)c3ccccc3n2)c1O | 30
COC(=O)CCCC1=CC2=C(c3ccccc3)C(=O)C(C)(OC(=O)C3CCCC3)C(=O)C2=CN1C1CCCCC1 (stereo not drawn) | 10
